From PubChem
Vaccinia Venus: inhibitors of vaccinia virus (Venus reporter). Vaccinia virus Venus reporter expression, fluorescence. Potency, µM (top dose mostly 36.5 µM), inactives show at the highest dose activity change, negative = inhibition, most hits filed as inhibitors. hit rate 0.46% among 330,000. AID 720580; active means well fitted inhibition curve with a large enough effect; inconclusive means small, poorly fitted or top-dose-only effect; inactive means no such curve, though single readings can be large or run the other way; tested in A549 cells; also: nearly all actives have a fitted effect of over 30% in size; inactives centre near -10
Vaccinia mCherry: inhibitors of vaccinia virus infection (mCherry reporter signal). Vaccinia virus mCherry reporter infection, fluorescence; about a quarter of the inactives have no number. AID 720579. Potency, µM (top dose mostly 36.5 µM), for the others: at the highest dose activity change, negative = inhibition, usual class: inhibitors. hit rate 0.63% among 310,000; active = well fitted inhibition curve with a large enough effect; inconclusive = small, poorly fitted or top-dose-only effect; inactive = no such curve, though single readings can be large or run the other way; tested in A549 cells; also: nearly all actives have a fitted effect of over 35% in size; inactives centre near -10
The depositor's hits bear a star; i = inactive; ? = inconclusive; / = no result given; [ ] = another dose, or the depositor's remark. % is scaled to controls: 0 for no effect and ±100 for the full control effect; potency is read from the fitted curve at half-maximal effect.

Screens in order – Vaccinia Venus | Vaccinia mCherry
- Cc1ccc(NC(=O)CSc2ncn[nH]2)cc1
  -5% | 3%
- CC(=O)Nc1cccc(NC(=O)CSc2cn(CC(=O)N3CCCCCC3)c3ccccc23)c1
  -17% | i
- O=C(NCc1ccccc1)c1ccc(N2CCC3(CC2)CC(c2ccc(Cl)cc2)=NO3)c([N+](=O)[O-])c1
  -7% | 0%
- CCc1ccc(NC(=O)CSc2nccn2-c2cccc(C)c2C)cc1
  -8% | -3%
- CCOC(=O)C1=CCN(S(=O)(=O)c2ccccc2C)C1c1ccccc1 (stereo unspecified)
  -2% | -2%
- COc1oc(-c2ccccc2C)nc1C(F)(F)F
  -5% | -4%
- CN1CC(Br)C(=O)NC1=O (stereo unspecified)
  -16% | -18%
- Cc1noc(C)c1COc1ncnc2ccccc12
  -15% | i
- COc1ccc(C(=O)Nc2cccc(-c3nc4ncccc4o3)c2C)cc1OC
  ? | /
- O=C(C1COc2ccccc2O1)N1CCN(c2ccccc2)CC1 (stereo unspecified)
  -11% | -18%
- Clc1cccc(/C=N\Nc2nccs2)c1
  ? | ?
- CN(CC(=O)Nc1cccc(F)c1)C(=O)c1cc(-c2ccco2)nc2ccccc12
  -3% | -1%
- COC(=O)CCSCc1cn2cc(Cl)ccc2n1
  -23% | /
- CC[C@H](CO)Oc1cc(NCc2cccc(N)c2)c2ncn(C(C)C)c2c1
  -19% | -5%
- O=c1c2cc(F)ccc2sn1-c1ccccc1
  -28% | -22%
- Cc1cccc(C(=O)NCCN2CCN(c3ccccc3)CC2)c1
  3% | /
- COC(C(=O)Nc1c(F)cccc1F)c1ccccc1 (stereo unspecified)
  -2% | -8%
- Cc1ccccc1N1CCN(C2CCCN(C(=O)c3csc(C(C)C)n3)C2)CC1 (stereo unspecified)
  -29% | -14%
- CNC(=O)C1CCN(S(=O)(=O)c2c(C)noc2/C=C/N(C)C)CC1
  5%[7.34 µM] | -4%[7.34 µM]
- O=C(CSc1nc2ccccc2o1)NCc1ccco1
  -16% | /
- CC(=O)OC[C@@H]1CN(Cc2ccccc2)C[C@H](n2cnc3c(NCC(C)C)ncnc32)O1
  5% | -27%
- Cc1c(CCC(=O)NCCCn2ccnc2)c(=O)oc2c(C)c3oc4c(c3cc12)CCCC4
  -18% | -22%
- O=C(Oc1ccccc1)n1c(=S)oc2ccccc21
  19% | -19%
- CC(C)(SC(=S)N1CCCCCC1)C(=O)O
  -1% | -2%
- Cc1c(/C=N/NC(=O)C(NC(=O)c2ccc3c(c2)OCO3)C(C)C)c2ccccc2n1C (stereo unspecified)
  -28% | ?
- Cc1ccc(F)c(S(=O)(=O)NC(=O)C2(C)CCN2C(=O)c2ccc(C(F)(F)F)nc2C)c1 (stereo unspecified)
  7% | -1%
- CC(C)Oc1ccc(C2CC(=O)N(c3cccc(/C=C/C(=O)O)c3)C2=O)cc1 (stereo unspecified)
  -8% | i
- CCOc1cc(NC(=S)NCCCN2CCOCC2)c(OCC)cc1NC(=O)c1ccc(C)cc1
  -8% | ?
- c1cc2cc(CNc3nc(NCC4CC4)nc4ccsc34)ccc2o1
  -19% | ?
- O=c1oc2ccccc2cc1-c1nc(-c2cccs2)no1
  -5% | -3%
- O=C1OC(c2ccc(Cl)cc2)=N/C1=C\c1cccnc1
  -8% | /
- COc1ccccc1NC(=O)CSc1nnc(C)n1CC1CCCO1 (stereo unspecified)
  1% | -9%[1.46 µM]
- N#Cc1cnn(-c2ccccc2)c1NC(=O)CN1CCOCC1
  -8% | i
- CN(Cc1nccs1)C(=O)C1CCC(=O)N(CCCc2ccccc2)C1 (stereo unspecified)
  0%[7.34 µM] | i[7.34 µM]
- COc1cccc(CNC(=O)Nc2cccs2)c1
  -14% | /
- Cc1ccc(OCCOC(=O)c2nc3nccc(C)n3n2)cc1
  -4% | 11%
- CC(C)CN1C(=O)c2ccc(C(=O)NCc3ccc4c(c3)OCO4)cc2C1=O
  -9% | -3%
- CCCNC(=O)CSC1=N/C(=C/c2ccc(F)cc2)C(=O)N1CC
  -1% | i
- Cc1ccnc(Nc2ccc(CCO)cc2)n1
  -10% | 6%
- CC1(c2ccccc2)NC(=O)N(CC(=O)Nc2ccc(S(=O)(=O)Nc3ncccn3)cc2)C1=O (stereo unspecified)
  -11% | -20%
- CC1CCN(C(=O)CSc2nnc(Cc3ccccc3)o2)CC1
  -10% | -2%
- Cc1cc(Cl)c2oc(C(=O)N(CCO)Cc3ccccc3)c(C)c2c1
  -26% | i
- CCOC(=O)Cn1nnc(-c2ccc([N+](=O)[O-])cc2)n1
  -17% | i
- O=C(O)CSCC(=O)N1CCN(S(=O)(=O)c2cc(Cl)cc(Cl)c2)CC1
  4% | i
- COc1ccc(OC)c(NC(=O)CCS(=O)(=O)c2cc3c(cc2C)NC(=O)CO3)c1
  6%[7.34 µM] | 1%[7.34 µM]
- CCc1cccc(NC(=O)C2CCN(S(=O)(=O)c3c(C)noc3C)CC2)c1
  -7% | 9%
- CC(=NNS(=O)(=O)c1cccc([N+](=O)[O-])c1)c1ccc(-n2ccnc2)cc1
  -7% | i
- CCOC(=O)c1ccc(-c2ccc(/C=C(\C#N)C(=O)Nc3ccc(OCC)cc3)o2)cc1
  -1% | 7%
- COc1ccc(Cn2c(=O)[nH]c3cc(C(=O)N4CCN(c5ccccc5OC)CC4)ccc3c2=O)cc1
  -28% | ?
- CCOC(=O)C1(C)CCCCCN1C(=O)c1ccc(N(C)C)cc1 (stereo unspecified)
  -11% | i
- Cc1ccc(Cl)cc1N(Cc1ccc(C(=O)NCc2cccnc2)cc1)S(=O)(=O)c1ccccc1
  -7% | -18%
- CC(CCCN1CCCC1)Nc1ccnc2cc(Cl)ccc12 (stereo unspecified)
  -8% | ?
- CCOC(=O)c1cc(-c2ccccc2)n(CC(=O)Nc2ccc(OCC)cc2)c1C
  -12% | -2%
- Cc1ccc(C(c2cccc(Br)c2)c2c(C)[nH]c3ccccc23)s1 (stereo unspecified)
  -5%[7.34 µM] | -13%
- Cc1ccc(Cn2nnc3c(=O)n(Cc4cc(C)ccc4C)cnc32)cc1
  -6% | i
- COc1cccc(CNC(=O)Cn2c(=O)oc3cc(S(=O)(=O)N4CCCCCC4)ccc32)c1
  -15% | -19%
- COc1cccc(CN(C)C(=O)COc2cccc3c2OC(C)(C)C3)c1OC
  -16% | i
- COc1cccc(/C=C/C(=O)OCC(=O)Nc2ccc3[nH]c(=O)[nH]c3c2)c1OC
  -15% | i
- Cc1cc(C(=O)N2CCN(S(=O)(=O)c3ccccc3)CC2)c(C)o1
  -19% | -4%
- Cc1ccc(S(=O)(=O)CCC(=O)N(CCN2CCOCC2)c2nc3ccccc3s2)cc1
  -14% | -2%

Full records as entered above. Order of screens: Vaccinia Venus | Vaccinia mCherry
COc1cccc(/C=C/C(=O)OCC(=O)Nc2ccc3[nH]c(=O)[nH]c3c2)c1OC reads -15% | i
CCOC(=O)Cn1nnc(-c2ccc([N+](=O)[O-])cc2)n1 reads -17% | i
Cc1ccc(S(=O)(=O)CCC(=O)N(CCN2CCOCC2)c2nc3ccccc3s2)cc1 reads -14% | -2%
CCOC(=O)C1(C)CCCCCN1C(=O)c1ccc(N(C)C)cc1 (stereo unspecified) reads -11% | i
COc1cccc(CN(C)C(=O)COc2cccc3c2OC(C)(C)C3)c1OC reads -16% | i

Additional structures.
Screens in order – Vaccinia Venus | Vaccinia mCherry
- O=S(=O)(c1cc(O)ccc1O)c1cccc2c(S(=O)(=O)c3cc(O)ccc3O)cccc12
  3% | -5%
- O=C1COc2ccc(C(=O)c3ccccc3C(=O)NCc3ccco3)cc2N1
  -6% | i
- COc1ccc(S(=O)(=O)Nc2ccccc2C(=O)N2CCOCC2)cc1Cl
  -7% | -1%
- OCC1(CCc2ccccc2)CCN(Cc2ccc3nsnc3c2)CC1
  2% | -13%
- CSc1nsc(SCC(=O)Nc2ccc(F)cc2)n1
  -20% | ?
- CCCCCNC(=O)C(=O)C1C(=O)Nc2ccccc21 (stereo unspecified)
  -6%[7.34 µM] | 0%[7.34 µM]
- Cc1cc(-c2nnc(SCC(=O)Nc3nc(-c4ccccc4)cs3)o2)no1
  0%[7.34 µM] | 3%[7.34 µM]
- CCOc1cc2[nH]c(=O)n(CCCCCC(=O)NC(C)CC)c(=O)c2cc1OCC (stereo unspecified)
  -3% | -5%
- O=C(c1ccc(-c2ccccc2)cc1)N1CCN(c2ccccn2)CC1
  -11% | i
- S=C(Nc1ccc2cn[nH]c2c1)Nc1ccc(Cl)cc1Cl
  -14% | -12%
- CCCCn1c(Cc2ccccc2)nnc1SCC(=O)Nc1cc(C)on1
  -6% | -19%
- CCCCSCCCNC(=O)C1CCN(Cc2nc(-c3ccc(CC)cc3)oc2C)CC1
  -8% | -21%
- CCNC(=O)C1(C)CCN(Cc2ccc(C(=O)OCC)o2)C1 (stereo unspecified)
  12% | 8%
- CCOc1ccc(S(=O)(=O)Nc2ccc(C(=O)N3CC(C)OC(C)C3)cc2)cc1 (stereo unspecified)
  -2% | -4%
- CC(OC(=O)Cc1ccc(F)cc1)C(=O)NCc1ccc2c(c1)OCO2 (stereo unspecified)
  -1% | -14%
- COCCn1c(Br)nc2c1c(=O)n(C)c(=O)n2C
  -20% | i
- CC1=NOC(=O)/C1=C\c1ccc(-c2ccc(Br)cc2)o1
  -2% | i
- N#Cc1ccc(Oc2ncccn2)cc1
  -6% | i
- COc1cccc(Cn2c(CNC(=O)C(C)C)nc3cccnc32)c1
  -9% | -13%
- CC(=O)C1=C(O)C(=O)N(Cc2cccnc2)C1c1ccccc1Cl (stereo unspecified)
  -8% | /
- CCN(Cc1ccccc1)C(=O)CCc1nc(-c2ccc(C)cc2)no1
  -17% | /
- COc1ccc2ccccc2c1C1NC(=O)c2ccccc2N1 (stereo unspecified)
  5.6µM* | ?
- CCOc1ccc(-c2ccc(C=O)o2)c([N+](=O)[O-])c1
  -6% | i
- Cc1ccc(C(=O)CSc2nc(C(C)C)nc3ccccc23)cc1
  1% | -2%
- COC(=O)C1=C(c2ccccc2OCc2ccccc2)C[C@@H]2CC[C@H]1N2C(=O)NCc1ccc([N+](=O)[O-])cc1
  ? | -22%
- COc1ccc(NC(=O)CN(C)C(=O)c2ccc(S(=O)(=O)Nc3ccccc3C)cc2)cc1
  -19% | -20%
- O=C(Nc1ccc(NC(=O)c2cc3ccccc3o2)cc1)c1ccccc1
  -5%[7.34 µM] | -14%[7.34 µM]
- Cc1oc2ccc(O)c(CN(C)Cc3ccccc3)c2c1C(=O)Nc1cccc(Cl)c1C
  -16% | -22%
- COc1ccc(Cl)cc1Cn1c(C)c(C(=O)NCc2ccc(C#N)cc2)sc1=O
  2% | i
- CC(=O)OC1=CN(Cc2ccccc2)S(=O)(=O)c2ccccc21
  ? | ?
- CNC(=O)NC(=O)COC(=O)c1n[nH]c2ccccc12
  -5% | i
- O=C(NCCC(=O)N1CCN(c2ccc(F)cc2)CC1)c1ccco1
  -3% | i
- Cc1cccc(NC(=O)c2nc[nH]c2C(=O)N[C@H](C)c2ccccc2)c1
  ? | 28µM*
- COCCNC(=O)C1CC2Cn3c(nc4cc(Cl)c(Cl)cc43)C2N1C (stereo unspecified)
  -18% | i
- O=C(CSc1nnc(-c2cccnc2)n1CCN1CCCCC1)Nc1cccc(Cl)c1
  -17% | -17%
- COc1cc(OC)cc(C(=O)NCC2CCCN(C(=O)c3csc(C(C)C)n3)C2)c1 (stereo unspecified)
  -20% | i
- CCCCCC[N+](=O)[O-]
  -19% | -15%
- O=C(O)CN1C(=O)/C(=C2\C(=O)N(Cc3ccccc3Cl)c3ccccc32)SC1=S
  -11% | i
- CCOc1cc(C#N)c(NC(=O)c2cccnc2)cc1OCC
  -18% | /
- Nc1ccc(C(=O)OCc2nc3ccccc3s2)cc1
  -11% | i
- CCCCN1CCC(CN2C(=O)C(=O)NC[C@@H]2Cc2ccccc2)CC1
  -9% | -23%
- Cc1c(Cl)cccc1NC(=O)CSc1nc(=O)[nH]c2c1CCCC2
  -4%[7.34 µM] | -11%[7.34 µM]
- Cc1cccc(/C=N/NC(=O)c2cc(Br)ccc2OCc2ccccc2)n1
  ? | ?
- O=C(O)c1ccccc1C(=O)OC1CC2CCC1C2 (stereo unspecified)
  -6% | i
- COc1ccc(-c2ccc(C#N)c(OC(=O)c3c(Cl)cccc3Cl)n2)cc1
  -21% | /
- COc1cccc(CN2C[C@]34C=C[C@@H](C[C@@H]3S2(=O)=O)O4)c1
  -8% | i
- CCOC(=O)C(C)Oc1cccc2c(=O)n(CC(=O)N3CCc4ccccc43)ccc12 (stereo unspecified)
  2% | -14%
- O=C(NC1(C(=O)NC2CCCC2)CCCCC1)c1ccc2c(c1)OCO2
  0% | 1%
- O=S(=O)(NC1CCCC1)c1ccc(S(=O)(=O)NC2CCCC2)cc1
  -11% | -18%
- CC(=O)NCCCc1c[nH]c2ccc(Cl)cc12
  -17% | -26%
- O=S(=O)(Nc1ccc2oc(-c3ccccc3)nc2c1)c1ccccc1
  -14% | -11%
- Cc1ccc(OCC(=O)N2CCC(C)CC2)c([N+](=O)[O-])n1
  0% | -10%
- C=C1C(C(=O)N2CCN(C)CC2)C1C(=O)N1CCN(C)CC1 (stereo unspecified)
  3% | i
- CCc1nc2ccc(C(=O)N3CCNC(=O)C3)cn2c1N(C)CCC(C)C
  4% | 52%[activator]
- O=C(Cn1ccc2cc(S(=O)(=O)N3CCCCCC3)ccc21)NCc1ccccc1Cl
  -11% | -17%
